Cruzain noTriton: cruzain (T. cruzi) inhibition without detergent; P25779; purified cruzain, Z-FR-AMC fluorescence, no detergent; Potency, µM, inactives show max response, negative = inhibition, hits mostly inhibitors; actives 2.3% (n = 200,000);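 note: plate controls were enzyme without inhibitor for no effect and buffer without enzyme for full effect; nearly all actives have a fitted effect of over 40% in size; top concentration of the series not given in the record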
Target sequence (P25779 123-467 limits assumed): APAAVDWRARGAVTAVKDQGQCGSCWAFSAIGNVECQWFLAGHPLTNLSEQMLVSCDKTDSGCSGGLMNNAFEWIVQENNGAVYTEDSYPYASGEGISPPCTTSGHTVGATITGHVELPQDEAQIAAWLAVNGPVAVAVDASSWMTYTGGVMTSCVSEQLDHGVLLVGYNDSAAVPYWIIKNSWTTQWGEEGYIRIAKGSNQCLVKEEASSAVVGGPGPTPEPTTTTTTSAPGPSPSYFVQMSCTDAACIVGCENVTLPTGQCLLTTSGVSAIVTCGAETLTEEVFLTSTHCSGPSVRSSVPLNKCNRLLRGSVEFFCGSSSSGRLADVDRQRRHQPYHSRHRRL
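Purified cruzain at 1.5 nM, pre-incubated 15 min with compound at room temperature in 100 mM sodium acetate pH 5.5, 5 mM DTT, 0.00005% Triton X-100. Reaction started with 2 uM Z-FR-AMC; AMC fluorescence increase over 60 s gives rate.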
NS1 function inh: blocks influenza NS1 protein function | S. cerevisiae slowed by influenza A NS1, growth recovery by OD600 | Potency, µM (titrated, usually from 46.1 µM), for inactives: at the top dose activity, positive = more growth | actives 0.4% (n = 270,000) | AID 2326; active means well fitted rising curve with a large enough effect; inconclusive means small, poorly fitted or top-dose-only effect; inactive means no such curve, though single readings can be large or run the other way; note: nearly all actives have a fitted effect of over 50% in size
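In this qHTS, NS1 from influenza A is expressed in budding yeast, where it slows growth. Cells are switched from glucose to 2% galactose medium (pH 6.0, -URA), treated with compound, and growth recovery is read at OD600.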
StopGo reporter: lowers the luciferase signal of an FMDV 2A StopGo reporter; Potency, µM (top dose mostly 57.9 µM), without a hit: top-dose signal change, negative = less light; AID 1159524; human cells with a luciferase reporter of 2A StopGo recoding; control for the full effect not named in the record; actives 1.2% (n = 410,000); active = well fitted falling curve with a large enough effect; inconclusive = small, poorly fitted or top-dose-only effect; inactive = no such curve, though single readings can be large or run the other way; tested in HEK293T cells; note: % is set by controls: 0 for no effect and ±100 for the full control effect; nearly all actives have a fitted effect of over 45% in size; luciferase light after 4 h
LASV entry inh: blocks Lassa virus binding to or entry into cells; Lassa virus pseudotype entry inhibition, cell reporter; control for the full effect not named in the record; Potency, µM (titrated, usually from 37.9 µM), inactives show top-dose activity change, negative = inhibition, usual class: inhibitors; actives 1.2% (n = 300,000); AID 540256; active means well fitted inhibition curve with a large enough effect; inconclusive means small, poorly fitted or top-dose-only effect, or effect the other way; inactive means flat fitted curve, though single readings scatter; tested in HEK293 cells; note: % is set by controls: 0 for no effect and ±100 for the full control effect; nearly all actives have a fitted effect of over 50% in size; luciferase read-out
Cruzain inh Det: cruzain (T. cruzi) inhibition with detergent; Potency, µM, for the others: max response, negative = inhibition, actives largely listed as inhibitors; purified cruzain, Z-FR-AMC fluorescence, 0.01% Triton; AID 1478; P25779; actives 0.43% (n = 200,000);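 note: plate controls were neutral wells for no effect and buffer without enzyme for full effect; nearly all actives have a fitted effect of over 40% in size; top concentration of the series not given in the record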
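Steps: dispense cruzain (1.5 nM final) in acetate buffer pH 5.5 with DTT and 0.01% Triton X-100; pin-transfer compounds; incubate 15 min RT; add Z-FR-AMC (2 uM final); read fluorescence every 30 s, using the 60 s intensity change.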
SARS PLP yeast: SARS-CoV PLP inhibition in yeast. S. cerevisiae expressing SARS-CoV PLpro, growth rescue; control for the full effect not named in the record. Potency, µM (titrated, usually from 32.9 µM), for the others: at the highest dose activity, positive = growth rescue. actives 0.19% (n = 330,000); active means well fitted rising curve with a large enough effect; inconclusive means small, poorly fitted or top-dose-only effect; inactive means no such curve, though single readings can be large or run the other way; note: 0% is about no effect; nearly all actives have a fitted effect of over 55% in size; growth read by luminescence after 48 h
RE007 growth inh: less growth of the S. pombe RE007 Vpr strain | S. pombe RE007 Vpr strain, BacTiter-Glo ATP luminescence, 24 h; control for the full effect not named in the record | Potency, µM (doses to about 92.2 µM), for inactives: at the highest dose activity change, negative = less growth | actives 0.21% (n = 360,000); active = well fitted falling curve with a large enough effect; inconclusive = small, poorly fitted or top-dose-only effect; inactive = no such curve, though single readings can be large or run the other way;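 note: % is set by controls: 0 for no effect and ±100 for the full control effect; nearly all actives have a fitted effect of over 50% in size; the assay follows cell death caused by Vpr and the record does not say whether a fall means rescue or toxicity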
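Fission yeast strain RE007, carrying one chromosomally integrated HIV-1 vpr copy, was seeded at OD 0.01 in PMG+AL medium with 23 nL pinned compound. After 24 h at 30 °C and 99% humidity, viability was read by BacTiter-Glo luminescence.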
Marburg entry inh: inhibitors of Marburg virus binding or cell entry. actives 1.8% (n = 300,000). Potency, µM (series often up to 37.8 µM), without a hit: at the top dose activity change, negative = inhibition, usual class: inhibitors. AID 540276. Marburg virus pseudotyped entry inhibition, cell reporter; control for the full effect not named in the record; about a third of the inactives were read at about 46 µM; active = well fitted inhibition curve with a large enough effect; inconclusive = small, poorly fitted or top-dose-only effect, or effect the other way; inactive = flat fitted curve, though single readings scatter; tested in HEK293 cells; about a fifth of its hits are not listed in these tables; note: % is set by controls: 0 for no effect and ±100 for the full control effect; luciferase read-out
Numbers without * were called inactive; ? = inconclusive; . = no result given; & = joins results of further samples; [ ] = dose if it differs, or a comment. Unless noted, calls come from the whole dose curve; as a rule, active = well fitted curve in the direction sought with a large enough effect; inconclusive = small, poorly fitted or top-dose-only effect, or another doubt; inactive = no such curve, though single readings can be large; an effect the other way counts as inactive or inconclusive. Potency is the fitted concentration of half-maximal effect.

SMILES	Cruzain noTriton	NS1 function inh	StopGo reporter	LASV entry inh	Cruzain inh Det	SARS PLP yeast	RE007 growth inh	Marburg entry inh
Cc1ccc(CSc2ncccc2C(=O)O)cc1	5%&-5%	-67%	49%&50%[activator]	?	0.7%&-3.4%	0%	6%[3.69 µM]	?
COC(=O)CCc1sc(Nc2ccc(Br)cc2)nc1-c1ccc(OC)cc1	-8%	1%	-22%	-5%	-1.7%	-25%	1%	-21%
CCOc1ccccc1CN1CCC(n2nccc2NC(=O)C2CCCC2)CC1	.	19%	-11%	?	.	4%	3%	?
COCc1cc(C)nc(OCC(=O)N/N=C/c2ccco2)c1C#N	-9%	8%	-20%	-2%	-5.1%	-2%	2%	?
CCOc1cc(C)c(Cl)cc1S(=O)(=O)NCc1ccco1	-10%	-36%	38%[activator]	7%	-1.1%	-7%	-3%	-18%[46.1 µM]
O=C(Nc1ccccc1N1CCCC1)c1ccc2c(c1)OCO2	-17%	-40%	4%	1%	-0.3%	-11%	-17%	12%
C/C(=N\NC(=O)c1ccc2c(c1)OCO2)c1ccc(O)cc1	.	-9%	10%	.	.	-2%	-3%	.
Cc1ccc(C(O)(CNCc2ccccc2)c2ccccc2)cc1 (configuration not stated)	.	-2%	-28%	.	.	-2%	-9%	.
CCOC(=O)C1=C(SCC(=O)Nc2ccccc2)NC(=O)C(C#N)C12CCCCC2 (configuration not stated)	1%	0%	?	-2%	-0.2%	6%	-3%	-4%
C/C(=N\OC(=O)c1ccc(OC(C)C)cc1)c1ccc(C)c(C)c1	-22%	-1%	9%	?	2.4%	-27%	6%	15%
O=S(=O)(c1cc(Cl)ccc1Cl)N1CCNCC1	-4%	2%	-12%	3%	-2.0%	7%	-10%	?
Cc1ccc(C(=O)N/C(=C\c2ccco2)C(=O)N2CC(C)OC(C)C2)cc1C (configuration not stated)	.	20%	7%	.	.	4%	3%	.
O=C(OCC(=O)N1CCN(C(=O)c2ccco2)CC1)c1ccc(S(=O)(=O)N2CCCCC2)cc1	14%	-4%	-13%	1%	1.3%	-5%	-15%	-14%&-14%
CCC1CCCCN1C(=O)CSc1nnc(-c2c[nH]c3ccccc23)o1 (configuration not stated)	?	6%	-5%	12%	-6.2%	0%	-5%	2%
COc1ccc(CC(NC(C)=O)C(=O)NC2CCN(S(=O)(=O)c3ccccc3)CC2)c(OC)c1 (configuration not stated)	.	-1%	8%	.	.	?	3%	16%[46.1 µM]
CCOCCc1nnc(NC(=O)C(=O)c2cc(C)n(-c3ccc(C)cc3C)c2C)s1	?	.	-7%	-17%[46.1 µM]	-3.5%	.	.	?
COCCCNC(=O)CCCn1c(SCC(=O)c2ccc(F)cc2)nc2c(sc3ccccc32)c1=O	-9%	.	10%	-16%[46.1 µM]	1.1%	.	.	4%[46.1 µM]
C=CCn1c(C)cc(C(=O)Cn2nc(C(=O)O)c3ccccc3c2=O)c1C	.	-3%	5%	.	.	0%	-11%	.
CCCn1cc(NC(=O)c2cc(-c3ccccc3)on2)cn1	7%	-152%	69%[activator]	-10%	-5.4%	-16%	-15%	?
COc1ccc(C(=O)Nc2c3c(nn2C(C)(C)C)CS(=O)(=O)C3)cc1OC	.	-4%	4%	8%	.	3%	-4%	12%
CCC(C)c1ccccc1NC(=O)COC(=O)c1ccc(N2CCCC2)c([N+](=O)[O-])c1 (configuration not stated)	-3%	0%	-10%	2%	0.0%	4%	5%	17%
Cc1nn2cc(-c3ccc(Cl)cc3)cnc2c1Cl	.	.	50%[activator]	-2%	.	0%	4%	?
COc1ccccc1N(CC(=O)NC1CCCC1)S(=O)(=O)c1ccc(C)cc1	.	-24%	3%	?	.	-2%	-7%	-10%
c1cc2c(cc1CN1CCNCC1)OCO2	.	-1%	14%	.	.	0%	-6%	.
CC(C)(C)OC(=O)N/N=C/c1ccc(C(=O)O)cc1	-14%	1%	18%	13%	-1.2%	5%	21%	?
COc1ccc(C2/C(=C(/O)c3ccccc3)C(=O)C(=O)N2CO)cc1 (configuration not stated)	2%	1%	-13%	4%	-0.4%	5%	-7%	-7%[46.1 µM]
CC(Cc1cccnc1)NC(=O)c1cc(COc2c(F)cccc2F)on1 (configuration not stated)	.	-3%	-18%	10%[46.1 µM]	.	-4%	-18%	0%[46.1 µM]
CCOc1ccc(S(=O)(=O)N2CCC(C(=O)OC(C)C(=O)N3CCOCC3)CC2)cc1 (configuration not stated)	.	.	-16%	-5%	.	7%	-5%	-2%
COc1cccc(N2CCN(CC(=O)NC(=O)NC3CCCCC3)CC2)c1	.	.	-28%	?	.	4%	-6%	?
CC1CN(S(=O)(=O)c2cccc(C(=O)N3CCC(C(N)=O)CC3)c2)CC(C)O1 (configuration not stated)	.	.	6%	0%	.	1%	-4%	?
Cc1cc2oc(=O)cc(CN(C)Cc3ccc(OC(F)F)cc3)c2cc1Cl	.	-21%	?	?	.	-1%	2%	?
COc1cccc(-n2ccnc2SCC(=O)N2CCc3ccccc32)c1	-15%	-5%	-36%	-28%	3.3%	0%	-10%	12%[46.1 µM]
NC(=O)COc1cccc2cccnc12	-2%	5%	4%	?	-2.3%	4%	9%	5%
O=C(Nc1cccc(F)c1)NC1(C(=O)N2CCN3CCCC3C2)CCCCC1 (configuration not stated)	3%	4%	23%	15%	0.5%	4%	1%	12%
COc1ccc2c(c1)C(C)=CC(C)(C)N2C(=O)Nc1ccccc1	-2%	-11%	3%	19%	-6.4%	-10%	-27%	-1%&-1%
Cc1cc(OCC(=O)Nc2ccc(CN3CCOCC3)cc2)ccc1Cl	.	-18%	0%	-1%	.	4%	-19%	-6%
O=C(Oc1ccc(-c2nnco2)cc1)N1CCCCC1	7%	-4%	36%[activator]	8%	0.6%	-4%	?	6%&2%
CC(=O)c1cc(-c2ccc(F)cc2)n(CCC(=O)NC2CCCCC2)c1C	2%	.	0%	1%[46.1 µM]	-3.6%	.	.	.
O=C(N=Nc1c(O)[nH]c2ccccc12)c1cccc(S(=O)(=O)N2CCCCC2)c1	-17%	?	-9%	12%	3.5%	-11%	3%	19%
Cc1cc(NC(=O)CCN2CCN(Cc3ccccc3)CC2)ccc1Br	.	-1%	?	.	.	-1%	-3%	-28%
CCCN(C(=O)Cc1csc(-c2ccccc2)n1)C1CCS(=O)(=O)C1 (configuration not stated)	.	.	0%	0%	.	-1%	2%	3%
Cc1ccccc1OCCSCc1nc2ccccc2[nH]1	3%	-36%	-6%	-1%	-26%	-52%	?	-4%
COc1ccc(NC(=O)CSc2ccc3nnc(-c4ccccn4)n3n2)c(OC)c1	.	8%	-15%	-4%	.	2%	-8%	?
CCCCC(=O)Nc1ccccc1C(=O)OCc1cc(=O)n2nc(C3CCCCC3)sc2n1	-3%	.	1%	15%[46.1 µM]	-4.6%	.	.	.
Cc1ccc(C2CC(C(F)(F)F)n3nc(C(=O)NCCN4CCOCC4)cc3N2)cc1 (configuration not stated)	-8%	-5%	-17%	-10%	-0.2%	-1%	20%	0%&0%
O=C(c1ccc(F)cc1)N1C2CCC1CC(O)(c1ccc(F)cc1)C2 (configuration not stated)	-2%	3%	-18%	-21%	-0.6%	3%	-1%	-25%
COc1ccccc1C(=O)NCCC(=O)NNC(=O)c1ccccc1O	.	.	-9%	9%	.	1%	5%	-7%
C/C(=N\NC(=O)c1cccc(C)c1)c1cccc(NC(=O)c2ccco2)c1	-4%	-20%	-8%	-13%	-0.9%	-4%	-1%	17%

Single values from above:
Cruzain inh Det with `C/C(=N\OC(=O)c1ccc(OC(C)C)cc1)c1ccc(C)c(C)c1` is entered as 2.4%
Marburg entry inh with `Cc1cc(OCC(=O)Nc2ccc(CN3CCOCC3)cc2)ccc1Cl` is entered as -6%

Other structures:
SMILES	Cruzain noTriton	NS1 function inh	StopGo reporter	LASV entry inh	Cruzain inh Det	SARS PLP yeast	RE007 growth inh	Marburg entry inh
Cc1ccc(NC(=O)c2ccc(OC(=O)COc3ccc(Cl)cc3C)cc2)cc1	13µM*	3%	52%[activator]	?	7.0%	6%	7%	?
CCOCCCNC(=O)CCCOc1ccccc1	8%	-6%	19%	3%	3.7%	11%	10%	12%
CCOc1ccc(-n2nc3c(=O)[nH]nc(C)c3c2C)cc1	-9%	4%	8%	-3%	1.4%	11%	-2%	-42%
Cc1cnnn1-c1cccc([N+](=O)[O-])c1	.	.	5%	10%	.	-5%	-13%	4%[46.1 µM]
CC1CC(C)CN(CCOCCSc2ccc(Cl)cc2)C1 (configuration not stated)	.	-10%	20%	?	.	0%	0%	7.1µM*
CC(=O)Nc1ccc(Oc2ccc3c(c2)C(=O)NC3=O)cc1	.	8%	-8%	21%	.	5%	0%	?
O=C(NC1CCCCC1)c1cccc(Cn2cc(Cl)cn2)c1	-6%	-14%	6%	8%	-1.3%	0%	18%	9%
O=S(=O)(c1ccsc1)N1CC=C(c2ccccc2)CC1	.	-6%	-18%	.	.	2%	0%	.
CCOC(=O)Cc1csc(NC(=O)C2C3C=CC(C3)C2C(=O)O)n1 (configuration not stated)	0%	5%	-3%	22%	1.7%	-1%	20%	7%[46.1 µM]
COc1ccc(N/C=C/C(=O)c2ccc(Oc3ncccn3)cc2)cc1	0%	2%	22%	-22%	0.2%	2%	1%	10%
CCN(C(=O)CSc1n[nH]c(-c2cccs2)n1)C1CCS(=O)(=O)C1 (configuration not stated)	.	-2%	-15%	.	.	0%	1%	.
COC(=O)CC(c1ccccc1F)N1Cc2ccccc2C1=O (configuration not stated)	.	3%	-4%	27%[46.1 µM]	.	3%	12%	?
CCOc1ccc(-c2nc(CSCC(=O)NCc3ccco3)c(C)o2)cc1	5%	-9%	-9%	?	4.2%	-8%	-11%	?
CCn1c(C)nc2cc(C(=O)NNC(=S)Nc3ccc(C)cc3)ccc21	.	-40%	6%	9%	.	-3%	-13%	9%[46.1 µM]

Bioassay records deposited in PubChem BioAssay by National Center for Advancing Translational Sciences (NCATS).
